High-throughput results: PubChem, several laboratories
ALR inh – human ALR oxidase inhibition via reduced H2O2. P55789. purified ALR, DTT oxidation, H2O2 HRP-luminol luminescence. inhibition, % (concentration not given with the values). actives 3.8% (n = 290,000). AID 485317;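 active means mean and each replicate at 75% or more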;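 further: stock transfer was 7.5 nL into about 7.5 µL; 0% = neutral wells and 100% = wells with inactivated enzyme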
LANA-H2B inh – blocks KSHV LANA binding to histone H2A/H2B; Q9QR71; cell-free LANA-H2A/H2B peptide, fluorescence polarization; inhibition, % (no concentration beside the values); actives 0.6% (n = 320,000); in the data active means inhibition mostly above about 10%, no sharp cut-off; inactive means mostly below about 6.7%;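 further: stock transfer was 7.5 nL into about 10 µL; 0% = median of vehicle wells and 100% = median of positive control wells; one replicate is shown; the record names a cut of 25% in any replicate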
Target sequence (Q9QR71 whole entry, looked up): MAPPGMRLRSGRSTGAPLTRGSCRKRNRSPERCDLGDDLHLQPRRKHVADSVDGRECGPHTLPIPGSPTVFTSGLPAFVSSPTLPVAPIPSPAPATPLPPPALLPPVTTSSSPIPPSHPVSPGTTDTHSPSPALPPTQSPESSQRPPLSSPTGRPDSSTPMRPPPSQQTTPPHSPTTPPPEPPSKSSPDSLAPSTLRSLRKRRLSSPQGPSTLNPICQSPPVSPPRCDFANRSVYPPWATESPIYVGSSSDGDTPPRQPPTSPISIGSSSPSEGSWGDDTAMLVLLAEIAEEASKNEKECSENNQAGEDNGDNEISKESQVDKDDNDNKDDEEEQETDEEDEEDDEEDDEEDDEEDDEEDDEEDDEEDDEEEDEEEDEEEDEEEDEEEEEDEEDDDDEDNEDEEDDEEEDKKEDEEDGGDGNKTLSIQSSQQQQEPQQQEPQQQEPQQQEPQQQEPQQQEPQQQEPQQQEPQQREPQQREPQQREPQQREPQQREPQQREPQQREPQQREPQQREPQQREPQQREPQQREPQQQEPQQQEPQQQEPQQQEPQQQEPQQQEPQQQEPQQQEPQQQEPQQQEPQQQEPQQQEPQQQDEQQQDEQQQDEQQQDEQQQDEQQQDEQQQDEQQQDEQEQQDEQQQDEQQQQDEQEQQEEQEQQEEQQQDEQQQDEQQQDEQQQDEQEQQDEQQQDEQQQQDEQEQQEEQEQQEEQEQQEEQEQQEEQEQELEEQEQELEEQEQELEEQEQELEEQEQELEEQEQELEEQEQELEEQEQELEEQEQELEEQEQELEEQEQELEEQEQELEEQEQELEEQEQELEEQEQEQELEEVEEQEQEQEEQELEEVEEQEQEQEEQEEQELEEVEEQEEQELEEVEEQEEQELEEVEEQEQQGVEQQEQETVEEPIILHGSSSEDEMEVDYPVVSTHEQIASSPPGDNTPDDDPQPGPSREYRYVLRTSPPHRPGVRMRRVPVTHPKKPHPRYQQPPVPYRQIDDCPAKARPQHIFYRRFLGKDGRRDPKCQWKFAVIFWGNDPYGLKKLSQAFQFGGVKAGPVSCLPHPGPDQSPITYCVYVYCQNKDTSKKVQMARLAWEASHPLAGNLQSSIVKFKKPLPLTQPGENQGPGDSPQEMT
FGF22 binding – binders of recombinant human FGF22 by thermal shift | Q9HCT0 | SYPRO orange fluorescence; percent of sucrose octasulfate shift, DMSO zero | calls only at 9.99 µM | actives 1.5% (n = 340,000) | AID 651658;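 active means melting point raised past a set limit in the mean and every replicate; three in four hits are not shown here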
UCH37 DUB inh – blocks the human deubiquitinase UCH37. inhibition, % (no concentration beside the values). actives 0.33% (n = 330,000). purified proteasome/UCH37, Ub-AMC cleavage fluorescence. Q9Y5K5. AID 588478;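 active means mean of two replicates above 20%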;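 further: 0% = compound-free wells with enzyme and 100% = wells lacking proteasome; stock transfer was 100 nL into about 20 µL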
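Material: human UCH37 enzyme supplied as purified proteasome complex. Measure: % inhibition of Ub-AMC cleavage fluorescence. Medium: pH 7.4 Tris-HCl (50 mM) with ovalbumin, ATP-MgCl2, DTT. Times: 30 min preincubation with enzyme, 25 min cleavage at room temperature. Detection: AMC fluorescence intensity at 355/460 nm.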
B2AR ag – agonists of human beta-2 adrenergic receptor inducing internalization | actives 0.43% (n = 340,000) | P07550 | response, % (concentration not given with the values) | Am2.2-beta2AR cells, FAP receptor internalization, flow cytometry; reference of the scale not given here;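 active means response above a set limit, near 3 SD of response in nonfluorescent compounds, cut at about 42% in these data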;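 further: stock transfer was 100 nL into about 11 µL; a reference agonist was the positive control; negative values mostly stem from fluorescent compounds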
E coli growth – inhibitors of Escherichia coli growth. OD600, 23 h; stronger effect = lower value. OD600 absorbance (test concentration not listed). actives 0.21% (n = 330,000). AID 1053175;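 active means OD600 absorbance below the run mean of sample wells minus 3.6 SD, in any replicate, cut at about 0.56 in these data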;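 further: stock transfer was 300 nL into about 60 µL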
HNF4A DNA FP – change in binding of human HNF4 alpha to DNA; P41235; HNF4a-FITC DNA binding, fluorescence polarization, 1 h; activity change, % at 10 µM; actives 0.3% (n = 360,000); in the data active means activity change above about 30%, passing the limit was not always enough;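 further: controls were the assay level and a saturating level of protein; the project sought stronger binding though the title names inhibitors; some compounds called inactive have numbers as strong as hits; positive values seem to mean higher polarization but the record does not say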
An asterisk follows results filed as active; i = inactive; / = not tested or not shown; + = active, no number. These rows are one share of the data; the hit share may differ from the screen's.

no. | structure | ALR inh | LANA-H2B inh | FGF22 binding | UCH37 DUB inh | B2AR ag | E coli growth | HNF4A DNA FP
1 | Cc1ccsc1C1CC(=O)Nc2ccccc2S1 (centres undefined) | 14.6 | -4.5 | i | 7.6 | -0.8 | 0.694 | -0.8
2 | O=C(CN(C(=O)Cn1nnc(-c2ccc(F)cc2)n1)c1ccc(F)c(Cl)c1)NCC1CCCO1 (centres undefined) | -2.0 | 4.7 | i | 5.8 | 2.9 | 0.686 | 0.5
3 | Cc1c(S(=O)(=O)Nc2ccc(Br)cc2)c(=O)n(C)c(=O)n1C | / | 3.5 | i | 1.9 | -2.8 | 0.803 | -2.4
4 | O=C(COc1ccc(Cl)cc1)NCc1nnc(SCC(=O)Nc2ccc3c(c2)OCCO3)o1 | -9.2 | 0.4 | / | 1.8 | 2.9 | 0.696 | -0.4
5 | Cc1ccc(NC(=O)N2CCCN(C(=O)OC(C)(C)C)CC2)cc1Cl | -12.5 | -4.6 | i | 1.4 | 5.3 | 0.693 | -0.7
6 | N#C/C(=C\c1ccccc1)C(=O)N(c1ccccn1)C1CCCCC1 | 50.1 | -3.7 | / | 0.8 | 26.6 | / | 3.4
7 | O=c1c2c(nc3cc(-c4ccc(F)cc4)[nH]n13)CCCC2 | -9.1 | 0.9 | / | -2.2 | -0.7 | 0.721 | 0.2
8 | CCOC(=O)C1CCN(C(=O)c2ccc(Oc3cc(Cl)cc(Cl)c3)o2)CC1 | -5.0 | -0.5 | i | 1.3 | 8.4 | 0.667 | 0.2
9 | CN1CCN(C(=O)CCNC(=O)Cn2ccc3ccccc3c2=O)CC1 | -10.6 | 3.6 | / | 3.2 | 4.2 | 0.75 | 0.4
10 | O=C(CNC(=O)c1cc(=O)[nH]c2ccccc12)Nc1ccc(F)c(F)c1 | -4.9 | 1.5 | i | -39.2 | -1.4 | 0.681 | 1.7
11 | COc1ccc(Br)cc1S(=O)(=O)n1c([N+](=O)[O-])cnc1C | -3.2 | 10.2 | i | 2.7 | 2.8 | 0.652 | 1.1
12 | COc1ccccc1Cn1c(=O)[nH]c2cccnc21 | 0.4 | 3.0 | / | 5.1 | 0.1 | 0.745 | 0.0
13 | O=C(CN1CCN(CC(=O)Nc2ccccc2Cc2ccccc2)CC1)Nc1ccccc1Cl | -1.8 | -2.0 | i | 3.5 | -4.8 | 0.68 | 2.0
14 | CNC(=O)Cc1csc2ccc(Cl)cc12 | -3.8 | -1.1 | / | 2.1 | 2.5 | 0.787 | -2.3
15 | CC1(C)CC(=O)C=C(Nc2ccccc2N)C1 | 98.7* | 4.9 | i | 3.2 | 11.0 | 0.648 | -2.1
16 | CCOc1ccc(CCN2C(=S)N([C@@H](Cc3ccc(O)cc3)CN3CCCC3CN3C(=S)NC[C@@H]3Cc3ccc(O)cc3)C[C@@H]2CC(C)C)cc1 (some centres undefined) | / | / | i | / | 14.4 | / | -0.1
17 | O=C(O)c1cccnc1SCc1ccc([N+](=O)[O-])cc1 | -4.4 | -4.4 | i | 7.4 | 3.5 | 0.629 | 0.0
18 | Cn1c(CCNC(=O)c2ccco2)nc2cc(NC(=O)C3CCCCC3)ccc21 | -4.6 | -1.8 | / | 1.9 | 1.3 | 0.719 | -0.9
19 | C/C(=N\NC(=O)c1cccc(S(=O)(=O)N2CCOCC2)c1)c1ccco1 | -2.6 | -1.4 | i | / | -2.8 | / | -1.5
20 | CCN(CC)c1ccc(NC(=O)c2cccnc2)c(C)c1 | 95.8* | 3.7 | / | 2.7 | 1.4 | 0.64 | -0.5

Records above marked active in ALR inh:
no. | structure | ALR inh | LANA-H2B inh | FGF22 binding | UCH37 DUB inh | B2AR ag | E coli growth | HNF4A DNA FP
15 | CC1(C)CC(=O)C=C(Nc2ccccc2N)C1 | 98.7* | 4.9 | i | 3.2 | 11.0 | 0.648 | -2.1
20 | CCN(CC)c1ccc(NC(=O)c2cccnc2)c(C)c1 | 95.8* | 3.7 | / | 2.7 | 1.4 | 0.64 | -0.5

(further entries)
no. | structure | ALR inh | LANA-H2B inh | FGF22 binding | UCH37 DUB inh | B2AR ag | E coli growth | HNF4A DNA FP
21 | CC(C)(C)c1ccc(C(=O)Oc2ccccc2CCC(=O)O)cc1 | 90.8* | 2.1 | i | 2.1 | 6.2 | 0.699 | -0.8
22 | CCOC(=O)c1c(C)[nH]c(C(=O)N/N=C/c2cccc(OC)c2)c1C | -1.5 | 13.9 | / | / | -6.0 | / | -2.2
23 | O=C(NC1CCCCC1)c1cc(-c2cccc(Cl)c2)on1 | / | 3.1 | + | 1.1 | 3.9 | 0.673 | 1.8
24 | CCOC(=O)C1(C)NC(c2cccs2)C2C(=O)N(c3ccc(OC)cc3)C(=O)C21 (centres undefined) | -10.1 | -0.3 | i | 3.6 | / | 0.67 | 1.7
25 | COc1ccc(CC(=O)O/N=C(\N)c2ccc(OC)cc2)cc1 | -8.5 | 3.1 | i | 4.3 | 0.5 | 0.632 | 2.4
26 | C=CCNC(=S)Nc1ccc(OC(F)F)c(Cl)c1 | -5.3 | -1.8 | i | 1.1 | -1.9 | 0.633 | 1.9
27 | CN(CCc1cnn(C)c1)C(=O)C1CCC(=O)N(CC2CCCCC2)C1 (centres undefined) | 0.7 | 2.3 | i | -1.2 | -7.7 | 0.651 | 5.3
28 | CNC[C@H]1Oc2c(NS(=O)(=O)c3cccs3)cccc2C(=O)N([C@H](C)CO)C[C@@H]1C | -0.2 | -6.4 | i | 2.2 | -1.2 | / | -0.3
29 | CC1(C)CC(=O)C(C=NCC2CCCO2)=C(O)C1 (centres undefined) | -2.1 | -12.4 | / | 5.4 | -5.9 | 0.737 | -4.6
30 | CCOP(=O)(/C(C#N)=C(/O)c1ccccc1)c1ccccc1 (centres undefined) | -7.6 | -1.6 | i | 5.8 | -3.7 | 0.665 | -1.6
31 | Cc1c(NC(=O)CN2C(=O)C3C4C=CC(C4)C3C2=O)c(=O)n(-c2ccccc2)n1C (centres undefined) | -8.0 | -0.2 | / | 0.4 | 1.7 | 0.743 | 6.8
32 | Nc1ccccc1C(=O)NCc1ccco1 | -11.7 | -3.7 | i | -103.5 | 2.1 | 0.69 | -1.2
33 | CC(C)C[C@H]1CNC(=S)N1CC1CCN(CCCC2CCCCC2)CC1 | / | / | i | / | -17.4 | / | 2.2
34 | COC(=O)c1ccc(NC(=S)Nc2cccc(C)n2)cc1 | -41.4 | -0.1 | / | 0.2 | 5.0 | 0.701 | 2.3
35 | Cc1ccc(C(=O)Nc2ccc3c(c2)C(=O)NC3=O)cc1 | 0.4 | 4.9 | i | -106.2 | 5.3 | 0.719 | 1.2
36 | COc1ccccc1CNC(=O)C(=O)NCCC1CCCCN1S(=O)(=O)c1ccccc1 (centres undefined) | -1.9 | 2.7 | i | -2.3 | 6.3 | 0.679 | 3.3
37 | Cc1ccc(C2C(C(=O)c3cccs3)=C(O)C(=O)N2c2nnc(C)s2)cc1 (centres undefined) | / | 12.9 | i | 11.3 | 12.8 | 0.706 | -79.7
38 | COc1ccc(OCC(Cn2cnc3ccccc32)OC(C)=O)cc1 (centres undefined) | -7.5 | 7.8 | / | 6.8 | -6.5 | 0.717 | -0.2
39 | O=C(NCc1ccccc1Cl)C1CCN(S(=O)(=O)c2cccs2)CC1 | -8.7 | -0.3 | i | 3.7 | 6.8 | 0.694 | 3.9
40 | Cc1ccc(N2C(=O)N(CC(=O)Nc3ccc(C)cc3[N+](=O)[O-])C(=O)C2C)cc1 (centres undefined) | 1.8 | -0.1 | i | 0.4 | -4.4 | 0.631 | -0.7
41 | COC(=O)c1ccc(COc2ccc(CNCc3ccc(Cl)cc3)cc2)cc1 | 1.9 | 1.9 | i | 1.8 | 8.9 | 0.653 | 1.0
42 | CCOc1ccc(NC(=O)c2cnccn2)cc1 | -7.9 | -0.4 | / | 6.0 | -2.7 | 0.779 | -3.9
43 | Cc1ccc(C)c(-c2nnc(NC(=O)C3=COCCO3)o2)c1 | 6.6 | 7.7 | i | 4.2 | -10.7 | 0.636 | -3.0
44 | Cc1ccc(C(=O)NN2C(=O)CSC2=S)cc1 | 31.9 | 0.1 | / | 1.2 | 0.5 | / | -0.7
45 | Cc1c(NC(=O)C(C)OC(=O)/C=C/c2ccccc2)c(=O)n(-c2ccccc2)n1C (centres undefined) | 0.1 | 4.2 | i | 5.6 | -13.8 | 0.685 | 2.0
46 | O=P(OCC1CCCO1)(OCC1CCCO1)OCC1CCCO1 (centres undefined) | / | / | i | 0.9 | -0.1 | 0.667 | 1.9
47 | CCOC(=O)C1(Cc2cccc(Cl)c2)CCCN(C(=O)c2cn[nH]c2)C1 (centres undefined) | 1.3 | -1.1 | i | -2.6 | -0.9 | 0.645 | 1.3
48 | O=S(=O)(c1ccccc1)c1nc(-c2ccco2)oc1N1CCOCC1 | 6.1 | 4.4 | / | 0.8 | 1.0 | 0.709 | -1.5
49 | O=C(O)C1CC(=O)N(c2ccc3c(c2)OCCO3)C1 (centres undefined) | -10.3 | -1.0 | / | 1.4 | 1.4 | 0.751 | -5.5
50 | COc1ccc(-c2csc(/C(C#N)=C/Nc3ccc4c(c3)OCCO4)n2)cc1 | -2.4 | -2.8 | i | -11.2 | -5.0 | 0.699 | 9.8
51 | COc1ccc(N(CC(=O)Nc2ccccc2C(=O)N2CCCC2)S(=O)(=O)c2ccccc2)cc1 | -2.0 | 0.6 | i | 0.5 | 9.0 | 0.7 | 0.0
52 | CN=C(Nc1ccc2c(c1)OCO2)SC1CC(=O)N(c2ccccc2)C1=O (centres undefined) | -21.8 | 0.4 | / | 2.2 | -10.4 | 0.694 | -0.7
53 | Cn1cnnc1SCC(=O)NC1CCCN(Cc2ccccc2F)C1 (centres undefined) | -1.5 | -6.8 | i | 3.4 | 0.7 | 0.686 | 3.4
54 | O=C1/C(=C2\C(=O)N(Cc3ccc(F)cc3)c3ccccc32)SC(=S)N1CCS(=O)(=O)O | -93.2 | -6.8 | i | 11.4 | -8.0 | 0.678 | -0.2
55 | N#C/C(=C\c1cn[nH]c1-c1ccc(Cl)cc1)C(=O)NCc1ccccc1 | 8.8 | -0.7 | / | / | 14.2 | / | -0.6
56 | NNC(=O)CSCc1nc(-c2ccc(Cl)cc2)cs1 | 46.8 | 0.7 | i | 1.6 | -7.7 | 0.683 | -0.7
57 | Cc1cc(/C=N/NC(=O)c2ccc(O)cc2)c(C)n1CC(C)C | 24.4 | -0.3 | i | / | -6.4 | / | -0.9
58 | Cc1nn(Cc2ccccc2Cl)c(C)c1NC(=O)/C=C/c1cnn(C)c1 | -0.3 | -3.8 | / | 4.4 | 7.4 | 0.625 | -4.7
59 | COc1cc(NC(=S)NCCN2CCOCC2)cc(OC)c1 | 2.1 | -3.7 | i | -0.3 | 1.1 | 0.652 | -4.0
60 | CC(C)(C)c1ccc(NC(=O)COC(=O)C2=COCCO2)cc1 | 2.9 | -5.2 | / | -1.0 | 6.2 | 0.686 | 1.6
61 | COc1cccc2cc(-c3ccccc3)oc12 | 1.8 | -1.1 | i | -1.8 | 9.9 | 0.667 | -2.8
62 | Cc1[nH]c2ccccc2c1/C=N/NC(=O)c1cccc(Br)c1 | 3.9 | 0.9 | / | / | 18.8 | / | 3.2
63 | CCn1ncc(/C=C/C(=O)NCc2cnn(C)c2C)c1C | 0.8 | 4.8 | / | 3.5 | 13.9 | 0.661 | 4.4
64 | CC(=O)Nc1ccc(NC(=O)c2sc3nc4n(c(=O)c3c2C)CCCCC4)cc1 | -5.3 | 2.8 | / | 5.9 | -6.9 | 0.617 | 1.2
65 | O=C1NC(=O)/C(=C\c2ccc(Br)o2)S1 | 10.3 | 0.1 | i | 13.0 | 4.8 | 0.605 | -4.8
66 | O=C(CSc1nnc(CNC(=O)c2ccccc2)o1)Nc1ccc2c(c1)OCCO2 | 98.4* | 1.0 | i | 3.3 | -0.9 | 0.672 | -0.1
67 | COCCn1c(SCC(=O)Nc2c(C)n(C)n(-c3ccccc3)c2=O)nnc1-c1ccncc1 | -1.3 | -0.6 | i | / | 1.0 | / | -2.1
68 | COc1ccc(S(=O)(=O)N(CC(=O)O)c2ccccc2)cc1 | -4.9 | -4.8 | i | 1.3 | 0.4 | 0.674 | 2.6
